Sa growth 42C: inhibitors of Staphylococcus aureus growth at 42 °C; S. aureus RN4220 growth, OD600, 20 h; stronger effect = lower value; relative growth, % (test concentration not listed); hit rate 0.53% among 170,000;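 active = growth at 42 °C up to 50% and 20 or more points under that at 30 °C, or under 10% at both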;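 note: 300 nL library stock went into each well; scaled to the means of positive and negative controls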
GIV-Gai inh: GIV-Galpha-i interaction inhibition. P08753. Galpha-i3/FITC-GIV peptide fluorescence polarization, 90 min; stronger effect = lower value; scaled: aluminum fluoride 0%, vehicle 100%. percent of control (FP), % (concentration not given with the values). hit rate 0.42% among 210,000;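 active = replicate mean at 85% of control or lower, very high polarization wells dropped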;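 note: wells of about 15 µL received 100 nL stock; the first replicate is given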
Target sequence (P08753 whole entry, looked up): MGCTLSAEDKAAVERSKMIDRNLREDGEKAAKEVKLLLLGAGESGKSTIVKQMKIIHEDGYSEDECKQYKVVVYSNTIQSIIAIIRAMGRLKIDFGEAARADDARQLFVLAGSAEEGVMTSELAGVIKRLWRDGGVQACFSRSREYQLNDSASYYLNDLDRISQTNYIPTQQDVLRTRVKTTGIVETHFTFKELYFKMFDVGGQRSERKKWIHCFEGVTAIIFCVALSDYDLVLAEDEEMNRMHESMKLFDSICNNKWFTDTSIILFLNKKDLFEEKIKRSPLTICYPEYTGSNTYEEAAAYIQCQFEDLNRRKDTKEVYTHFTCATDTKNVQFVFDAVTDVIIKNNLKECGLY
HCMV NEC inh: cytomegalovirus nuclear egress complex inhibition. inhibition, % (no concentration beside the values). HTRF UL50-UL53 interaction, normalized percent inhibition. hit rate 0.15% among 190,000;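 active = both replicates at 50% or more, plus weaker picks with an unusually low signal ratio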;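 note: stock transfer was 100 nL into about 20 µL; 0% = negative control wells and 100% = wells with untagged competitor protein; inactives centre near -12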
Sa growth 42C second temp: recorded beside Sa growth 42C, whose call it bears; relative growth, %; measured here: growth at 30 °C;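 optical density after 20 h as mean of two plates; 100% = untreated growth and lower means inhibition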
* marks the source's active call; other numbers are inactive results; nt = no result given; & = joins results of further samples.

1) CCOC(=O)C1=C(C)NC2=C(C(=O)C(C(=O)OC)C(C)C2)C1c1ccc(OC)cc1 (stereo not drawn)
2) O=C(Nc1ccc2c(c1)OCO2)C1CCCC1
3) COc1ccc(CCNC(=O)c2ccc3c(c2)S(=O)(=O)N=C2CCCCCN23)cc1OC
4) COc1ccc(CN(C(=O)c2cc3ccccc3oc2=O)C2CCS(=O)(=O)C2)cc1OC (stereo not drawn)
5) CCOC(=O)c1c(NC(=O)c2sc3cc(Cl)ccc3c2Cl)sc2c1CCCC2
6) Cc1cc2ccccc2n1CCNC(=O)c1cccc(Br)c1
7) CCc1nnc2c(N3CCN(c4cccc(C)c4)C(C)C3)nc3ccccc3n12 (stereo not drawn)
8) Cc1ccccc1CSc1cn(CC(=O)N2CCCC2)c2ccccc12

assay / compound,1,2,3,4,5,6,7,8
Sa growth 42C,77,102,78,95,nt,113,107,115
Sa growth 42C second temp,75,96,93,89,nt,93,97,106
GIV-Gai inh,102,nt,nt,100,107,100,107,107
HCMV NEC inh,-48,-10,-21,-37,-14,-7,nt,nt

9) Cc1ccc(-c2nnc(NCc3nc4ccccc4[nH]3)c3ccccc23)cc1S(=O)(=O)N1CCOCC1
10) COc1cc(OC)cc(C(=O)Nc2ccc3oc(-c4ccc(OC)c(Br)c4)nc3c2)c1
11) COC(=O)C1CCCN1S(=O)(=O)c1ccc(Cl)cc1 (stereo not drawn)
12) CCCCNC(=O)CSc1nc2cc3c(cc2c(=O)n1CCCCCC(=O)NCCc1ccc(OC)c(OC)c1)OCO3
13) Cc1ccc2ncnc(N(CC(C)C)CC(C)C)c2c1
14) Oc1cccc(O)c1
15) CCOC(=O)c1cc(C)nc(Sc2ccc(Cl)cc2)n1
16) Cc1ccccc1CSc1nc2cccnc2n1Cc1ccc(C(=O)NC2CC2)cc1

assay / compound,9,10,11,12,13,14,15,16
Sa growth 42C,nt,nt,96,94,nt,90,109,84
Sa growth 42C second temp,nt,nt,76,90,nt,85,40,96
GIV-Gai inh,101,104,102,103,104,nt,106,99
HCMV NEC inh,0,-15,-20,nt,29,-45,3,nt

Arranged by the number under Sa growth 42C second temp (highest first): some entries from above.
No. | structure | Sa growth 42C second temp
16 | Cc1ccccc1CSc1nc2cccnc2n1Cc1ccc(C(=O)NC2CC2)cc1 | 96
12 | CCCCNC(=O)CSc1nc2cc3c(cc2c(=O)n1CCCCCC(=O)NCCc1ccc(OC)c(OC)c1)OCO3 | 90
11 | COC(=O)C1CCCN1S(=O)(=O)c1ccc(Cl)cc1 (stereo not drawn) | 76

Reformatted: entries from further up.
nr	mol	Sa growth 42C	Sa growth 42C second temp	GIV-Gai inh	HCMV NEC inh
1	CCOC(=O)C1=C(C)NC2=C(C(=O)C(C(=O)OC)C(C)C2)C1c1ccc(OC)cc1 (stereo not drawn)	77	75	102	-48
7	CCc1nnc2c(N3CCN(c4cccc(C)c4)C(C)C3)nc3ccccc3n12 (stereo not drawn)	107	97	107	nt
5	CCOC(=O)c1c(NC(=O)c2sc3cc(Cl)ccc3c2Cl)sc2c1CCCC2	nt	nt	107	-14
2	O=C(Nc1ccc2c(c1)OCO2)C1CCCC1	102	96	nt	-10

Later entries
17) N#Cc1c(-c2ccccc2)nc(SCCN2C(=O)c3ccccc3C2=O)[nH]c1=O
18) O=C(Cc1cccs1)Nc1cccc(-c2nn[nH]n2)c1
19) CCc1cccc(NC(=O)CN(c2ccc(C)c(C)c2)S(=O)(=O)c2ccsc2C(=O)OC)c1
20) O=C(Nc1ccc(Cl)cc1)N1CCC(n2cnc3cccnc32)CC1
21) CC1CCN(S(=O)(=O)c2ccc(C(=O)Nc3nc(-c4ccncc4)cs3)cc2)CC1
22) Cc1oc2nc[nH]c(=O)c2c1C(=O)O
23) Cc1noc(C)c1C(=O)N1CCCC1c1ccc(F)cc1 (stereo not drawn)
24) Cc1cn2c(=O)cc(COC(=O)COc3ccccc3C)nc2s1

assay / compound,17,18,19,20,21,22,23,24
Sa growth 42C,108,101,104,nt,110,97,nt,108
Sa growth 42C second temp,94,96,87,nt,106,94,nt,90
GIV-Gai inh,106,105,101,99,105,nt,95,102
HCMV NEC inh,-31,-21,nt,-5,-7,-19,-4,nt

25) Cc1cc2ncn(C(C)c3ccccc3)c2cc1C (stereo not drawn)
26) Cc1ccc(-n2c(=O)c3ccccc3n3c(SCC(=O)N(C(C)C)C(C)C)nnc23)c(C)c1
27) O=C(O)c1cccc(CSc2nnc(COc3ccccc3)o2)c1
28) Cn1nnnc1SCCNCc1ccc(OCc2ccc(Cl)cc2)cc1
29) CN1C(C(=O)NCC23CC4CC(CC(C4)C2)C3)=CC(c2ccco2)=NS1(=O)=O
30) CCN(c1ccc(OC)cc1)S(=O)(=O)c1c(C(=O)N2CCCCCC2)c(C)n(C)c1C
31) N#C/C(C(N)=O)=C1/CCc2ccccc2N1
32) CCN(CC)S(=O)(=O)c1ccc(N=Nc2sc(N)nc2-c2ccccc2)cc1

assay / compound,25,26,27,28,29,30,31,32
Sa growth 42C,104,95,83,111,71,100,92,110
Sa growth 42C second temp,81,92,101,75,81,86,82,92
GIV-Gai inh,102,nt,109,101&106,108,101,110,nt
HCMV NEC inh,nt,-1,-9,15&11,nt,nt,nt,-34

33) CS(=O)(=O)N1CCCc2cc(C(=O)NCc3ccncc3)ccc21
34) N#Cc1ccccc1-c1ccccc1C(=O)O
35) CSc1ccccc1C(=O)N1CCN(c2ccccc2)CC1
36) CCOc1ccccc1NC(=O)Cn1c(=O)n(CCCC(=O)NCc2ccc(C)cc2)c(=O)c2ccccc21
37) CCn1cc(C(=O)N2CCN(c3ccc(F)cc3)CC2)c(=O)c2cc(S(=O)(=O)N3CCOCC3)ccc21
38) CCn1cc2c(n1)C(=O)N(c1ccccc1)C1c3ccccc3C(=O)N21 (stereo not drawn)
39) COc1ccc(-c2nc3ccc(C)cn3c2Nc2ccc3c(c2)OCO3)cc1
40) CCOC(=O)c1c(C)oc2c1c1c(c3ccccc32)OCN(CCc2ccccc2)C1

assay / compound,33,34,35,36,37,38,39,40
Sa growth 42C,nt,103,96,112,102,92,100,112
Sa growth 42C second temp,nt,92,85,73,96,91,86,83
GIV-Gai inh,104,nt,nt,108,102,105,103,101
HCMV NEC inh,-4,-6,-22,-7,3,-4,-27,nt

41) CCC1CCCCN1C(=O)C1CCCCC1 (stereo not drawn)
42) CC1(C)CC(=O)C(C=NCCN2CCN(C3CC(=O)N(c4ccc(Br)cc4)C3=O)CC2)=C(O)C1 (stereo not drawn)
43) CCOC(=O)c1c(C)n(-c2ccc(C)cc2)c2ccc(OCC(O)CNc3ccc(OC)cc3)cc12 (stereo not drawn)
44) COc1cc2c3c(c1OC)C1(C=CC(=NNC(N)=O)C=C1)CC3N(C(C)=O)CC2 (stereo not drawn)
45) N#CC1(NC(=O)CNc2ccc(I)cc2)CCCC1
46) CNCC[C@@H](Oc1ccccc1)c1ccccc1
47) C/C(=N\NC(=O)Cc1cc(=O)[nH][nH]1)c1ccco1
48) CC(C)(C)c1cc2ncc(S(=O)(=O)c3ccc(Cl)cc3)c(N)n2n1

assay / compound,41,42,43,44,45,46,47,48
Sa growth 42C,103,85,nt,84,112,87,79,89
Sa growth 42C second temp,93,73,nt,79,103,76,76,78
GIV-Gai inh,95,100,98,103,nt,nt,96,108
HCMV NEC inh,6,-14,-19,-67,3,-53,-34,-6

49) Cn1c(=O)c(=O)n(C)c2cc(S(=O)(=O)N3CCN(c4ccc(F)cc4)CC3)ccc21
50) CC(=O)Nc1cccc(NC(=O)CSc2nccn2Cc2ccc3c(c2)OCO3)c1
51) CCc1ccccc1NS(=O)(=O)c1cc2c3c(c1)CCN3C(=O)CC2
52) Cc1cc(C)n2c(SCC(N)=O)nnc2n1
53) Cc1c(/C=C(\C#N)C(=O)Nc2nccs2)cc(C#N)n1C
54) O=C1CCCC2=C1C1(O)C(=O)c3ccccc3C1(O)O2 (stereo not drawn)
55) CC1(C)CC(=O)C2=C(C1)Nc1ccccc1NC2c1ccccc1Cl (stereo not drawn)
56) O=C(c1cnc2ccccc2n1)N1CCN(S(=O)(=O)c2ccc3c(c2)OCCCO3)CC1

assay / compound,49,50,51,52,53,54,55,56
Sa growth 42C,84,119,nt,100,103,95,nt,84
Sa growth 42C second temp,102,84,nt,104,86,105,nt,87
GIV-Gai inh,108,100,107,nt,nt,59*,100,nt
HCMV NEC inh,12,nt,13,9,-37,78*,-10,-52

Marked active in GIV-Gai inh (from the list above):
cpd | molecule | Sa growth 42C | Sa growth 42C second temp | GIV-Gai inh
54 | O=C1CCCC2=C1C1(O)C(=O)c3ccccc3C1(O)O2 (stereo not drawn) | 95 | 105 | 59*

Retrieved by compound from above, 2 records:
56) O=C(c1cnc2ccccc2n1)N1CCN(S(=O)(=O)c2ccc3c(c2)OCCCO3)CC1
52) Cc1cc(C)n2c(SCC(N)=O)nnc2n1

assay / compound,56,52
Sa growth 42C,84,100
Sa growth 42C second temp,87,104
GIV-Gai inh,nt,nt
HCMV NEC inh,-52,9

Later entries
57) COC(=O)c1sccc1NC(=O)CSc1nccn2nc(-c3ccc(Cl)cc3)cc12
58) O=C(Nc1ccc(CCc2nc3ccccc3n2-c2ccccc2)cc1)c1cnccn1
59) CCOc1ccc(-c2nonc2NC(=O)C(C)Oc2ccc(CC)cc2)cc1C (stereo not drawn)
60) Cc1cccc(C(=O)Nc2ccc(-c3nc4ccccc4s3)cc2Cl)c1
61) O=C1c2cccc3cc(Br)cc(c23)C(=O)N1Nc1ccc(Cl)cc1
62) Cc1cc2c(c(=O)[nH]1)C(=O)O/C2=C\c1ccco1
63) CCN(CC)C(=S)NCCc1ccccc1
64) O=CNC1c2ccccc2Oc2ccccc21

assay / compound,57,58,59,60,61,62,63,64
Sa growth 42C,nt,nt,nt,121,115,90,96,108
Sa growth 42C second temp,nt,nt,nt,90,82,76,90,64
GIV-Gai inh,102,102,105,96,nt,102,103,104
HCMV NEC inh,-2,-28,0,nt,-7,nt,-6,nt

65) c1ccc(CCNc2ccc(-c3nc(-c4ccccc4)no3)nn2)cc1
66) CCC(C)NC(=O)c1cnc2scc(C)n2c1=O (stereo not drawn)
67) COc1cccc(CN2CCc3[nH]c(=S)[nH]c(=O)c3C2)c1
68) O=C(Oc1ccccc1)C1CCN(c2ccc(C(F)(F)F)cn2)CC1
69) COc1ccc(OC)c(CCNC(=O)Cn2ncc3c([nH]c4ccccc43)c2=O)c1
70) Cc1nn(C)c(C)c1S(=O)(=O)N1CCN(C(=O)c2cc3cc(Cl)ccc3[nH]2)CC1
71) Cc1cccc(N2CCN(C(=O)CN3C(=O)COc4ccc(S(=O)(=O)N5CCCCCC5)cc43)CC2)c1C
72) CCOC(=O)c1c(C)oc2ccc(S(=O)(=O)Nc3cc4c(cc3N3CCCCC3)n(C)c(=O)n4C)cc12

assay / compound,65,66,67,68,69,70,71,72
Sa growth 42C,nt,nt,74,109,113,nt,100,nt
Sa growth 42C second temp,nt,nt,87,88,101,nt,94,nt
GIV-Gai inh,95,106,108,99,112,104,101,106
HCMV NEC inh,-8,-3,nt,-18,nt,-5,-11,9

73) N#CC(Cc1cccs1)c1nc2ccccc2[nH]1 (stereo not drawn)
74) Cc1cccc(C)c1NC(=O)Cn1nnc(C(=O)Nc2c(C)cccc2C)c1N
75) O=C(CCc1nc2ccccc2[nH]c1=O)OCC(=O)c1ccc(F)cc1
76) NS(=O)(=O)c1ccc(NC(=O)C2CCN(c3ccc(=O)n(-c4ccc(F)cc4)n3)CC2)cc1
77) CCc1cccc(C)c1N(C(=O)c1ccco1)C1=NCCC(=O)S1
78) N#C/C(=C\c1ccccc1)C(=O)OCC1CCCO1 (stereo not drawn)
79) Cc1nn(-c2ccccc2)c(C)c1CCc1nnc2sc(-c3ccc(N(C)C)cc3)nn12
80) CN1C(C(=O)Nc2cccnc2)=CC(c2ccco2)=NS1(=O)=O

assay / compound,73,74,75,76,77,78,79,80
Sa growth 42C,77,115,93,nt,107,83,nt,99
Sa growth 42C second temp,58,86,96,nt,89,88,nt,92
GIV-Gai inh,144,106,nt,103,100,nt,106,108
HCMV NEC inh,-27,-20,4,-59,-1,-53,-41,-60

81) Cc1nnc(-c2cc3ccccc3n2Cc2ccc(Br)cc2)o1
82) CCOc1cc(C2Nc3cc(C)c(C)cc3NC3=C2C(=O)CC(C)(C)C3)ccc1OC(=O)C1CC1 (stereo not drawn)
83) O=C1Sc2ccc(S(=O)(=O)Nc3ccc(Br)cc3)c3cccc1c23
84) COCC(C)n1c(COc2ccccc2F)nnc1SCC(=O)OC(C)(C)C (stereo not drawn)
85) CC(C)c1ccc(NC(=O)C(c2ccccc2)N(C)C(=O)Cc2cccs2)cc1 (stereo not drawn)
86) O=C(Nc1cccc(-c2nc3ccccc3o2)c1)c1cc([N+](=O)[O-])ccc1N1CCOCC1
87) Cc1ccc(CCNC(=O)CN2CCN(Cc3ccc(F)cc3Cl)C2=O)cc1
88) O=C(COC(=O)c1ccccc1)NC1CCCCCC1

assay / compound,81,82,83,84,85,86,87,88
Sa growth 42C,nt,nt,42,97,95,96,nt,118
Sa growth 42C second temp,nt,nt,41,97,82,84,nt,81
GIV-Gai inh,106,104,105,nt,100,103,105,nt
HCMV NEC inh,3,-15,nt,-12,nt,-23,-30,-43

Screening data deposited in PubChem BioAssay by ICCB-Longwood Screening Facility, Harvard Medical School.
